Bioassay records (PubChem)
Sfp inh: inhibitors of Bacillus subtilis Sfp phosphopantetheinyl transferase; Potency, µM, for the others: max response, negative = inhibition, actives largely listed as inhibitors; Q9F4F7; AID 1490; Biochemical Sfp PPTase activity, qHTS; hit rate 3.5% among 310,000; active = well fitted inhibition curve with a large enough effect; inconclusive = small, poorly fitted or top-dose-only effect, or another doubt; inactive = no such curve, though single readings can be large or run the other way;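 also: the enzyme is Sfp with the accession as filed and its product quenches rhodamine fluorescence; potency is read from the fitted curve at half-maximal effect; 0% = enzyme reaction without inhibitor and -100% = no enzyme wells; top concentration of the series not given in the record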
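Fluorescence-quenching assay: 15 nM Sfp-PPTase preincubated 15 min at room temperature with compound, then 5 uM rhodamine-CoA and 12.5 uM BHQ-2-labelled YbbR peptide added. Fluorescence (ex 525/em 598 nm) read at start and after 30 min; difference gives rate.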
Menin-MLL FL inh: menin-MLL binding inhibition, fluorescein peptide. Fluorescence polarization, fluorescein-MLL peptide displacement from menin. 290,000 tested, under 10 active. FP activity change, % at 61.4 µM; inconclusive = falling polarisation curve, or a change in total fluorescence; inactive = total fluorescence flat and polarisation flat or rising; no compound was filed as active; the % refers to the polarisation; negative = inhibition;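 also: % of control where 0% means no effect; inhibitors lower the polarisation; unlabelled MLL peptide was the positive control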
* hit, by the source's call; ? = inconclusive; . = no result given; & = joins results of further samples; [ ] = remark or other dose. The list is partial; rates above refer to the full screens.

SMILES | Sfp inh | Menin-MLL FL inh
CO/C1=C\C(C)=C\[C@@H](C)[C@@H](O)[C@H](C)C/C(C)=C/C=C/[C@H](OC)[C@H]([C@@H](C)[C@@H](O)[C@H](C)[C@H]2C[C@@H](O)[C@H](C)[C@@H](C(C)C)O2)OC1=O | -18% | .
CC(C(=O)OC1CC2CCC(C1)N2C)c1ccc(Br)cc1 (centres undefined) | 10% | .
COC(C/C=C/C=C/CC/C=C\CC(C)/C=C\C(=C/C(=O)O)CC(=O)O)/C(C)=C\C=C(/C)C(=O)O (centres undefined) | 5% | .
O=C(O)/C=C/CO | 17%&14% | .
COc1ccc2c(c1O)-c1cc(O)cc3c1[C@@H](C2)N(C)CC3 | -3% | .
CCCOC(=O)c1cc2c(cn1)[nH]c1ccccc12 | ? | .
O=C1CSC(c2ccccc2Cl)c2cc(Cl)ccc2N1 (centres undefined) | -9% | .
CN1CCCCC1c1cccnc1 (centres undefined) | -19% | .
CCN1C[C@]2(COC(=O)c3ccccc3N3C(=O)CC(C)C3=O)CC[C@H](OC)[C@@]34C5C[C@@H]6[C@@H](OC)C[C@@](O)(C5[C@H]6OC)[C@](O)([C@@H](OC)C23)[C@@H]14 (some centres undefined) | 8% | .
CC[C@]12C=CCN3CC[C@@]4(c5ccc(OC)cc5N(C)[C@H]4[C@@](O)(C(=O)OC)[C@@H]1OC(C)=O)C32 (some centres undefined) | -6% | .
CCC(Sc1ccccc1)C(=O)OC1CC2CCC(C1)N2C (centres undefined) | -26% | .
C[C@]12CCC3C(CC[C@H]4C[C@H](O)CC[C@]34C)[C@@H]1CC[C@@H]2C(=O)CO (some centres undefined) | -10% | .
Oc1ccc2c3c1O[C@H]1c4c(c5ccccc5n4Cc4ccccc4)C[C@@]4(O)C(C2)N(CC2CC2)CC[C@]314 | -17% | .
CC(C)(c1ccc(OCC2CO2)cc1)c1ccc(OCC2CO2)cc1 (centres undefined) | 6%&2% | .
COc1ccc(C(=O)O[C@H]2CC[C@@]3(C)C4CCC5[C@]6(O)C[C@H](O)[C@@]7(O)C(CN8C[C@@H](C)CC[C@H]8[C@@]7(C)O)[C@]6(O)C[C@@]53O[C@@]42O)cc1OC (some centres undefined) | 13%&12% | .
COC(=O)/C=C/C(=O)N[C@@H]1CC[C@@]2(O)[C@H]3Cc4ccc(O)c5c4[C@@]2(CCN3CC2CC2)[C@H]1O5 | -3% | .
CC1Cc2cc3c(cc2C(c2ccc(N)cc2)=NN1)OCO3 (centres undefined) | . | ?
NCC#Cc1ccccc1 | . | 0.1
CCCN1CCC[C@@H](c2cccc(C#N)c2)C1 | . | 5.5
CC(=O)[C@H]1CCC2C3CC[C@H]4C[C@H](O)CC[C@]4(C)C3CC[C@@]21C (some centres undefined) | . | 3.8
C[C@@H]1O[C@@H](O[C@H]2C[C@@H](O)[C@]3(CO)[C@H]4[C@H](O)C[C@]5(C)[C@@H]([C@@H]6COC(=O)C6)CC[C@]5(O)[C@@H]4CC[C@]3(O)C2)[C@H](O)[C@H](O)[C@H]1O | . | 8.4
O=C(O)C1C2CCC(O2)C1C(=O)O (centres undefined) | . | 2.0
NC(CCCCCP(=O)(O)O)C(=O)O (centres undefined) | . | 3.2
CCOC(=O)c1ncn2c1[C@@H]1CCCN1C(=O)c1cc(OC)ccc1-2 | . | 5.0
C=CCN1C[C@@H](C)N([C@H](c2ccc(C(=O)N(CC)CC)cc2)c2cccc(OC)c2)C[C@@H]1C | . | 5.1
c1cc2c(c(N3CCNCC3)c1)OCCO2 | 19% | -9.6
CNC(C)C1CC[C@H](N)[C@@H](OC2C(N)C[C@H](N)[C@@H](OC3OC[C@](C)(O)C(NC)[C@H]3O)C2O)O1 (some centres undefined) | 0% | -1.5
C[C@@]12CCC(=O)C=C1C=C[C@H]1[C@H]3CC[C@](O)(CCC(=O)O)[C@]3(C)CC[C@@H]12 | 21% | 4.3[24.8 µM]
CC(C)C(Br)C(=O)NC(N)=O (centres undefined) | 3% | 2.9
C[C@@H]1C(=O)OC2C[C@@]34[C@H]5C[C@@H](C(C)(C)C)[C@@]36C(O)C(=O)O[C@H]6O[C@@]4(C(=O)O5)[C@]21O (some centres undefined) | 23% | 5.9
C[C@]12CCC3C(CC[C@]4(O)CC(O)CC[C@@]34C=O)[C@]1(O)CCC2C1=CC(=O)OC1 (some centres undefined) | 19% | -2.9
CC/C=C\C[C@@H](/C=C/C=C\C/C=C\C/C=C\CCCC(=O)O)OO | -5% | -0.3
CC1(C)S[C@H]2[C@@H](N)C(=O)N2[C@H]1C(=O)O | 56µM* | ?
Cc1cc(OC(=O)N(C)C)nn1C(=O)N(C)C | -11% | 7.8
C/C=C1\C2C=C(C)C[C@@]1(N)c1ccc(=O)[nH]c1C2 | -6% | -3.5
CC(=O)OC1CC(OC(C)=O)[C@]2(C)C(CC(OC(C)=O)[C@]3(C)C2CC[C@@]2(C)C(c4ccoc4)C[C@H]4O[C@]432)C1(C)C (some centres undefined) | -18% | 0.9
ClCC1C(CCl)C2(Cl)C(Cl)=C(Cl)C1(Cl)C2(Cl)Cl (centres undefined) | -15% | ?
CN1C[C@H](C(=O)N[C@]2(C)O[C@]3(O)[C@H]4CCCN4C(=O)[C@H](Cc4ccccc4)N3C2=O)C[C@H]2c3cccc4[nH]cc(c34)C[C@@H]21 | 3% | -0.9[24.8 µM]
CCS(=O)(=O)C(C)(C)S(=O)(=O)CC | 14% | 1.3
C1CC[C@H]([C@@]23C[C@H](C[C@H]4CCCN[C@H]42)[C@@H]2CCCCN2C3)NC1 | 16% | -2.6
CC[C@H](/C=C/[C@@H](C)[C@H]1CC[C@H]2C3CC=C4C[C@@H](O)CC[C@]4(C)C3CC[C@]12C)C(C)C (some centres undefined) | 34%[activator] | -15
N[C@@H](CSCCCO)C(=O)O | 50µM* | -1.6
Cc1ncc2n1-c1ccc(Cl)cc1C(c1ccccc1F)=NC2O (centres undefined) | -9% | -1.8
O=C1CCC[C@H]2[C@@H]3CCCN4CCC[C@H](CN12)[C@H]34 | 19% | -5.6
CC(C)(O)c1[se]c2ccccc2c1I | -14% | -2.6
CCCOCCN(C(=O)CCl)c1c(CC)cccc1CC | 14% | 2.5
CCN(CC)C(=O)N[C@@H]1C=C2c3cccc4[nH]cc(c34)C[C@H]2N(C)C1 | -24% | ?
CC(C)(C)NCC(O)c1ccccc1Cl (centres undefined) | 17% | 1.3&1.2
CN1C[C@H](C(=O)N[C@]2(C)O[C@@]3(O)C4CCCN4C(=O)[C@H](Cc4ccccc4)N3C2=O)C[C@@H]2c3cccc4[nH]cc(c34)C[C@H]21 (some centres undefined) | -25%&-10% | ?
CN1C2CC(=O)CC1C(O)C2 (centres undefined) | 15% | ?
Next records.
SMILES | Sfp inh | Menin-MLL FL inh
C=C(C)C1CNC(C(=O)O)C1CC(=O)O (centres undefined) | -29% | 0.2
CC1CC[C@@]2(OC1)OC1C(O)C3C4CC[C@H]5CC(O[C@@H]6O[C@@H](CO)[C@H](OC7OC(CO)C(O)C(OC8OCC(O)C(O)[C@H]8O)[C@@H]7O[C@@H]7OC(CO)[C@H](O)[C@@H](O[C@@H]8OC(CO)C(O)C(O)C8O)C7O)C(O)C6O)C(O)C[C@]5(C)C4CC[C@]3(C)C1C2C (some centres undefined) | 2% | -0.6
CNC(=O)[C@@H]1C[C@H]1[C@@H](NP(=O)(c1ccccc1)c1ccccc1)c1ccccc1 | 29% | 1.0
CC[C@@H]1CN2CCc3cc(OC)c(OC)cc3[C@H]2C[C@@H]1C[C@@H]1NCCc2cc(O)c(OC)cc21 | 2% | -4.8[24.8 µM]
c1ccc([Se]c2c(-c3ccccc3)[se]c3ccccc23)cc1 | 1% | 0.0
CN(C)[C@@H]1C(=O)C(C(N)=O)=C(O)[C@]2(O)C(=O)C3=C(O)c4c(O)ccc(Cl)c4[C@](C)(O)[C@H]3C[C@@H]12 | 11% | 11[24.8 µM]
CC[C@H]1C2CC3[C@@H]4N(C)c5ccccc5[C@]45C[C@@H](C2[C@H]5O)N3[C@@H]1O (some centres undefined) | 8% | ?
CCN1C[C@@]2(COC(=O)c3ccccc3N3C(=O)CC(C)C3=O)CC[C@H](OC)[C@]34C5C[C@@H]6[C@@H](OC)C[C@@](O)(C5[C@H]6OC)[C@@](O)(C13)[C@@H](OC)C24 (some centres undefined) | 16% | 0.5
C[C@H](NC(C)(C)C)C(=O)c1cccc(Cl)c1 | 30% | 0.4[24.8 µM]
COc1cc(CC(=O)OCC2=C[C@H]3[C@@H]4C(C)(C)[C@]4(OC(C)=O)[C@H](OC(=O)Cc4ccccc4)[C@@H](C)[C@]3(O)[C@@H]3C=C(C)C(=O)[C@@]3(O)C2)ccc1O | -2% | -1.8
CCOC(=O)/C=C(C)/C=C/CC(C)CCCC(C)C (centres undefined) | -1% | -1.5
COC(=O)C[C@@](O)(CCC(C)(C)O)C(=O)O[C@@H]1C(OC)=C[C@]23CCCN2CCc2cc4c(cc2[C@@H]13)OCO4 | 7% | 4.6
C=CCN1CCc2cccc3c2C1Cc1ccc(O)c(O)c1-3 (centres undefined) | 45µM* | -3.0
C[C@@H]1C[C@@H](O)[C@@]2(O)[C@]13CC(=O)OC[C@]2(C)[C@@](C)(O)C(=O)C3 | 1% | -0.7
CCC(C(N)=O)N1CCCC1=O (centres undefined) | -1%&24% | 2.0&4.1
CCN(CC)CCN1C(=O)CN=C(c2ccccc2F)c2cc(Cl)ccc21 | 3% | 1.1
COC[C@H]1OC(=O)c2coc3c2[C@@]1(C)C1=C(C3=O)[C@H]2CCC(=O)[C@@]2(C)C[C@H]1OC(C)=O | ? | ?
CCCCC/C=C\C/C=C\C/C=C\C/C=C\CCCC(=O)NC1CC1 | -10% | 3.9
Cc1ccc2nc3sc(=O)sc3nc2c1 | ? | -24
CSC(=S)NCc1c[nH]c2ccccc12 | -19%&9% | -0.5&0.5

Quoted at random: two records from the list, in no set order.
SMILES | Sfp inh | Menin-MLL FL inh
CSC(=S)NCc1c[nH]c2ccccc12 | -19%&9% | -0.5&0.5
COC[C@H]1OC(=O)c2coc3c2[C@@]1(C)C1=C(C3=O)[C@H]2CCC(=O)[C@@]2(C)C[C@H]1OC(C)=O | ? | ?

Next section
SMILES | Sfp inh | Menin-MLL FL inh
Cc1ccc(NC(=O)N(C)C)cc1Cl | 10% | -13
C[C@H]1C(=O)O[C@H]2CCN3CC=C(COC(=O)[C@](C)(O)[C@@]1(C)O)C23 (some centres undefined) | 1% | -1.5
O=C1NCN(c2ccccc2)C12CCN(CCCOc1ccc(F)cc1)CC2 | 8%&5%&7% | -5.7&-0.9
COc1cc2c(cc1O)C[C@H]1c3c(cc(OC)c(O)c3-2)CCN1C | -32% | ?
N#CC(C#N)=NNc1cccc(Cl)c1 | 56µM* | -21
CCOC(=O)CCN(SN(C)C(=O)Oc1cccc2c1OC(C)(C)C2)C(C)C | -13% | -3.4
CN1C[C@@H](C(=O)N[C@@]2(C)O[C@]3(O)C4CCCN4C(=O)[C@@H](Cc4ccccc4)N3C2=O)C=C2c3cccc4[nH]cc(c34)C[C@@H]21 (some centres undefined) | -31% | ?
CCCC(C)(COC(N)=O)COC(N)=O | 3% | -1.0
CC1C(=O)OC2CCN3CC=C(COC(=O)[C@](C)(O)[C@]1(C)O)C23 (some centres undefined) | 33% | 3.3
O=C1NC(=S)NC(=O)C1C(=O)Nc1ccccc1 | -18% | 4.7
CCCCC1(C2CCCC2)Cc2cc(OCCCC(=O)O)c(Cl)c(Cl)c2C1=O (centres undefined) | -20%&2% | 1.2&-2.4
CCC(=O)O[C@@](Cc1ccccc1)(c1ccccc1)[C@@H](C)CN(C)C | 8% | -5.8[24.8 µM]
C[C@H]1CCCC=CC2C[C@H](O)C[C@@H]2[C@H](O)/C=C\C(=O)O1 (some centres undefined) | -1% | ?
S=C(S)N1CCNCC1 | ? | 1.2
O=C(O)c1cc([N+](=O)[O-])cc([N+](=O)[O-])c1O | 3% | 0.8
CC(C)(O)C1C2OC(=O)C1[C@]1(O)CC3O[C@@]34C(=O)OC2[C@@]14C (some centres undefined) | -4% | 0.5
C[C@@H]1Cc2c(Cl)cc(C(=O)N[C@H](Cc3ccccc3)C(=O)O)c(O)c2C(=O)O1 | 6% | -3.4
CCCCCCCC/C=C\CCCCCCCC(=O)OC[C@@H](COP(O)(O)=S)OC | ? | -11
COc1ccccc1C1(O)CCN(CCCn2c3ccccc3c3ccccc32)CC1 | ? | 3.3
CNC(=S)S | -19% | 0.5

One compound at a time (already shown):
Entry for `CNC(=S)S` → Sfp inh: -19%; Menin-MLL FL inh: 0.5
Entry for `C[C@@H]1Cc2c(Cl)cc(C(=O)N[C@H](Cc3ccccc3)C(=O)O)c(O)c2C(=O)O1` → Sfp inh: 6%; Menin-MLL FL inh: -3.4

New compounds follow:
SMILES | Sfp inh | Menin-MLL FL inh
c1ccc([C@H]2CNCc3ccccc32)cc1 | -7% | ?
O=C(O)Cc1ccccc1 | 2% | 3.2
CC(=O)C(O)C(c1ccccc1)c1c(O)c2ccccc2oc1=O (centres undefined) | 9% | 4.2
O=C1C=CC[C@@H]2[C@H]3CCCN4CCC[C@@H](CN12)[C@@H]34 | -7% | -9.8
C[C@]12CC[C@@H]3c4ccc(OC(=O)N(CCCl)CCCl)cc4CC[C@H]3[C@@H]1CC[C@@H]2O | 0% | -0.6
Cc1occc1C(=O)Nc1ccccc1 | 5% | -3.8
